HPGD block: qHTS Assay for Inhibitors of HPGD (15-Hydroxyprostaglandin Dehydrogenase). 15-hydroxyprostaglandin dehydrogenase [NAD(+)] (Homo sapiens), P15428. purified HPGD, NADH fluorescence kinetic, PGE2 substrate. Potency, µM, without a hit: top-dose activity change, negative = inhibition, most hits filed as inhibitors. 150,000 tested, 4.3% active; active = well fitted inhibition curve with a large enough effect (not every such curve was filed as active); inconclusive = small, poorly fitted or top-dose-only effect, or another doubt; inactive = no such curve, though single readings can be large or run the other way;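 also: top concentration of the series not given in the record; plate controls included wells without enzyme; inactives centre near -10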
Target sequence (P15428 whole entry, looked up): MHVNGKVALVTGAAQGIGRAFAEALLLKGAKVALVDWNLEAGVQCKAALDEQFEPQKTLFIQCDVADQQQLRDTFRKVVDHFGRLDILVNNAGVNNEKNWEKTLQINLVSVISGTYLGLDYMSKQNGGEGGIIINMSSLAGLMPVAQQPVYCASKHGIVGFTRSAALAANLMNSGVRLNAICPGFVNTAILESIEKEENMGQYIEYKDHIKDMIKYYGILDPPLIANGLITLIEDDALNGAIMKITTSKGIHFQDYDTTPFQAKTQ
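NADH formation kinetics: reaction with 30 uM PGE2 and 1 mM NAD+ (final), 20 nM enzyme, Tris-HCl pH 8 with Tween 20, after 15 min compound preincubation at room temperature. Fluorescence change, last versus first of five reads.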
* hit, by the source's call; ? = inconclusive; & = joins results of further samples. % is scaled to controls: 0 for no effect and ±100 for the full control effect; potency is read from the fitted curve at half-maximal effect. The list is partial; the hit share may differ from the screen's.

SMILES	HPGD block
Cc1nc2ccccc2c2oc(C(=O)Nc3ccc4c(c3)OCCO4)cc12	-20%
CC(=O)C1=C(O)C(=O)N(CCN(C)C)C1c1ccc(Cl)cc1 (stereo unspecified)	-13%
COc1cccc2sc(Nc3nc(C)c(C(C)=O)s3)nc12	?
N#CC(c1ccccc1)N(CCCCl)C(=O)c1ccc(Br)cc1 (stereo unspecified)	-10%
O=C(NC1CCCC1)c1ccc(CSc2nc3ccncc3n2Cc2ccc(F)cc2)cc1	3.2µM*
CCCNC(=O)C(=O)Nc1ccc(N(C)C)cc1	-5%
Cc1ccccc1OCC(=O)Nc1ccccc1-c1ccccc1NC(=O)COc1ccccc1C	-9%
Cc1nn(CC(=O)NCc2ccc(Cl)cc2)c(C)c1[N+](=O)[O-]	-20%
COC(=O)NCC(c1cccnc1)N1CCN(c2ccccc2)CC1 (stereo unspecified)	-8%
CCCCc1ccc(S(=O)(=O)N2CCN(C(=O)c3ccco3)CC2)cc1	-7%
Cc1ccc(NS(=O)(=O)c2cc(C(=O)N3CCOCC3)ccc2C)cc1	-7%
C=CCn1c(Cc2cccs2)nnc1SC/C=C/c1ccccc1	-7%
Cc1c(N=Cc2ccc(Br)s2)cccc1[N+](=O)[O-]	-11%
CCOc1ccccc1NC(=O)N1CCCC1C(=O)Nc1ccc(-n2cnnn2)c(C)c1 (stereo unspecified)	3%
Cc1ccc(Sc2cc(N3CCOCC3)nc(-c3ccccc3)n2)cc1	-29%
Cc1cccc(-n2c(Cn3nc(C)c([N+](=O)[O-])c3C)n[nH]c2=S)c1	-25%
Cc1cc(C)n(S(=O)(=O)c2ccc(C)c(C)c2C)n1	-10%
CC(C)C(=O)N1CCN(C2=NS(=O)(=O)c3ccccc32)CC1	-8%
COc1ccc(NC(=O)C(c2ccccc2)N(C)C(=O)c2ccc(=O)[nH]c2)cc1 (stereo unspecified)	-12%
Cc1ccccc1N1CN(Cc2ccco2)CNC1=S	-4%
CCOC(=O)N1CCC(NC(=O)C(NC(=O)C2CCCCC2)C(C)C)CC1 (stereo unspecified)	?
COC(=O)/C(=C\Nc1ccccc1)NC(=O)c1ccc(Cl)cc1Cl	-9%
CCCCc1nc2ccccc2c(NC(=O)CN2CCN(C)CC2)c1CCC	-3%
CCOC(=O)c1ccc(NC(=O)CSc2nc3c(c(=O)n2C)SC(C)C3)cc1 (stereo unspecified)	-27%
CC1=C(C(=O)Nc2ccccn2)C(c2ccc(Br)cc2)NC(=S)N1 (stereo unspecified)	-6%
O=C(O)Cc1ccc(OCCNC[C@H](O)c2ccccc2)cc1	-9%
COCCNC(=O)C(=O)NCC1OCCCN1S(=O)(=O)c1cccs1 (stereo unspecified)	-9%
CCc1nnc2c(N(C)C)nc3ccccc3n12	-1%
CC(C)CN(C(=O)CSc1nn(-c2ccc(Cl)cc2)c(=S)s1)C1CCS(=O)(=O)C1 (stereo unspecified)	-14%
CCCCC/C=C\C/C=C\CCCCCCCC(N)=O	-11%&-11%
Cc1cc(N(C)NC(=S)Nc2ccccc2)nc(C)n1	-9%
COc1cc(/C=N\NC(=O)C2C(=O)NCC2c2ccccc2)cc(OC)c1O (stereo unspecified)	-15%
CCC(=O)Nc1nc2ccccc2n1CCN(C)C	10%
CC[C@H](C)[C@@H](NC(=O)O[C@@H]1C(=O)c2ccc(OC)cc2O[C@H]1c1cccc(C(F)(F)F)c1)C(=O)OC	-2%
COc1ccc(OC)c2sc(N3CCCCC3)nc12	16µM*
CC(=O)N(CN1C(=O)c2ccccc2C1=O)c1ccccc1	-11%
O=C(O)c1cscn1	-1%
N[C@H](CSC(c1ccccc1)(c1ccccc1)c1ccccc1)C(=O)O	-10%
FC(F)(F)c1nc2nncn2c2c1CCCCC2	?
COc1cccc(C2=NOC(C(=O)NC(C)C)C2)c1 (stereo unspecified)	-9%
O=C(CNS(=O)(=O)c1ccc(Br)s1)NCC1COc2ccccc2O1 (stereo unspecified)	-7%
N#CCCn1nc(-c2ccccc2)cc1-n1c(C(F)(F)F)nc2ccccc21	-13%
CCOC(=O)CC(NC(=O)Cc1ccc(F)cc1)c1ccccc1Cl (stereo unspecified)	-2%
O=C(O)[C@H]1CCC(=O)N1Cc1ccco1	-6%
CC(C)(C)c1[nH]nc2c1C(c1ccoc1)C(C#N)=C(N)O2 (stereo unspecified)	-17%
FC(F)(F)c1cc(Oc2ccc(Cl)cc2)nc(-c2ccccn2)n1	2%
CC1CC(NC(=O)CCn2c(=O)oc3ccccc32)CC(C)(C)C1 (stereo unspecified)	-4%
COc1ccc(-c2nn(C)c(=O)c3ccccc23)cc1CNC(=O)c1ccco1	?
Nc1nc(-c2ccco2)cs1	-12%
COc1ccc(C2C(C#N)=C(C)NC3=C2C(=O)CC(C)(C)C3)cc1 (stereo unspecified)	?
COC(=O)NC1(C(F)(F)F)C(=O)NC(C)=C1C(=O)OC (stereo unspecified)	3%
Oc1ccc(Br)cc1-c1cc(-c2ccco2)[nH]n1	?
CCOC(=O)c1cc(=O)n(Cc2ccccc2C)c2ccccc12	-27%
C=CCn1c(SCC(=O)c2[nH]c(C)c(C(=O)OCC)c2C)nc2scc(-c3ccc(OC)cc3)c2c1=O	-5%
Cc1ccc(S(=O)(=O)NCCN2CCOCC2)cc1C	-1%
Cc1ccc(C2SCC(=O)N2Cc2cn3ccsc3n2)o1 (stereo unspecified)	-14%
COC(=O)CCC/C=C1/SCC(NC(=O)c2ccccc2)C1=O (stereo unspecified)	25µM*
COC(=O)C1=C(C)C(c2cccs2)NC(=O)N1C (stereo unspecified)	-13%
COC(=O)CC(NC(=O)c1ccc(C)cc1)c1ccccc1 (stereo unspecified)	-16%
Cc1c(N2C(=O)c3ccc(Br)cc3C2=O)c(=O)n(-c2ccccc2)n1C	1%

2 records drawn at random from those above:
SMILES	HPGD block
CCOC(=O)c1cc(=O)n(Cc2ccccc2C)c2ccccc12	-27%
CCOC(=O)CC(NC(=O)Cc1ccc(F)cc1)c1ccccc1Cl (stereo unspecified)	-2%

Copied from the results shown (23 entries):
SMILES	HPGD block
COc1ccc(OC)c2sc(N3CCCCC3)nc12	16µM*
CC(=O)N(CN1C(=O)c2ccccc2C1=O)c1ccccc1	-11%
O=C(O)c1cscn1	-1%
N[C@H](CSC(c1ccccc1)(c1ccccc1)c1ccccc1)C(=O)O	-10%
FC(F)(F)c1nc2nncn2c2c1CCCCC2	?
COc1cccc(C2=NOC(C(=O)NC(C)C)C2)c1 (stereo unspecified)	-9%
O=C(CNS(=O)(=O)c1ccc(Br)s1)NCC1COc2ccccc2O1 (stereo unspecified)	-7%
N#CCCn1nc(-c2ccccc2)cc1-n1c(C(F)(F)F)nc2ccccc21	-13%
CCOC(=O)CC(NC(=O)Cc1ccc(F)cc1)c1ccccc1Cl (stereo unspecified)	-2%
O=C(O)[C@H]1CCC(=O)N1Cc1ccco1	-6%
CC(C)(C)c1[nH]nc2c1C(c1ccoc1)C(C#N)=C(N)O2 (stereo unspecified)	-17%
FC(F)(F)c1cc(Oc2ccc(Cl)cc2)nc(-c2ccccn2)n1	2%
CC1CC(NC(=O)CCn2c(=O)oc3ccccc32)CC(C)(C)C1 (stereo unspecified)	-4%
COc1ccc(-c2nn(C)c(=O)c3ccccc23)cc1CNC(=O)c1ccco1	?
Nc1nc(-c2ccco2)cs1	-12%
COc1ccc(C2C(C#N)=C(C)NC3=C2C(=O)CC(C)(C)C3)cc1 (stereo unspecified)	?
COC(=O)NC1(C(F)(F)F)C(=O)NC(C)=C1C(=O)OC (stereo unspecified)	3%
Oc1ccc(Br)cc1-c1cc(-c2ccco2)[nH]n1	?
CCOC(=O)c1cc(=O)n(Cc2ccccc2C)c2ccccc12	-27%
C=CCn1c(SCC(=O)c2[nH]c(C)c(C(=O)OCC)c2C)nc2scc(-c3ccc(OC)cc3)c2c1=O	-5%
Cc1ccc(S(=O)(=O)NCCN2CCOCC2)cc1C	-1%
Cc1ccc(C2SCC(=O)N2Cc2cn3ccsc3n2)o1 (stereo unspecified)	-14%
COC(=O)CCC/C=C1/SCC(NC(=O)c2ccccc2)C1=O (stereo unspecified)	25µM*

The list goes on.
SMILES	HPGD block
CN(C)c1nc(Oc2ccc(=O)[nH]n2)nc(N2CCCCC2)n1	-2%
COc1cc2cc[n+]3cc4c(OC)c(OC)ccc4cc3c2cc1OC	-24%
CCN(C(=O)CN1CCN(S(=O)(=O)c2ccccc2C(F)(F)F)CC1)c1c(N)n(Cc2ccccc2)c(=O)[nH]c1=O	-4%
CCC1(c2ccccc2)NC(=S)N(c2cccc(C)c2C)N1 (stereo unspecified)	-6%
O=C(NCc1ccccc1)c1ccc2c(c1)OCCO2	?
NS(=O)(=O)c1cccc(NC(=O)COC(=O)CCSc2ccccc2)c1	-11%
Cc1ccc(S(=O)(=O)NC2=C(N3CCN(c4ccccc4F)CC3)C(=O)c3ccccc3C2=O)cc1	-11%
O=C(Nc1ccccc1C(=O)NC(Cc1ccccc1)C(=O)NC1CCCCCC1)c1ccccc1 (stereo unspecified)	?
Cc1ccc(NC(=O)c2cncc(Br)c2)c([N+](=O)[O-])c1	3%
CCOC(=O)[C@@]12C[C@@H]1/C(=N/O)c1ccccc1O2	-22%
COCCCNC(=O)c1ccc(NS(C)(=O)=O)cc1	-11%
Cc1oc2ccc(O)c(CN3CCOCC3)c2c1C(C)O (stereo unspecified)	-3%
Cc1occc1C(=O)N1CCN(C(c2ccccc2)c2ccccc2)CC1	-22%
COc1ccc(OC)c(N2Cc3cc(C)c(C)cc3C2)c1	-17%
Cc1c(C(=O)N2CCN(c3ccc(C(F)(F)F)cn3)CC2)oc2ccccc12	-16%
O=C(NCCCN1CCOCC1)c1cn(-c2ccccc2)nc1-c1cccs1	-9%
O=S(=O)(c1ccccc1)N1CCC2(CC1)CN(Cc1nccs1)C2	-6%
COC(=O)C1=C(CSc2nc3ccccc3s2)NC(=O)NC1c1ccc(F)cc1 (stereo unspecified)	-30%
Cc1ccc(SCc2cn3c(C)csc3n2)cc1	-10%
CN(CCO)c1nc(N)c2c(N)nc3c(c2c1C#N)CC(=O)N3C1CCCC1	?
NC(=O)c1ccc(-c2ncc(-c3ccccc3)o2)cc1	?
Cc1cnc(C(=O)Nc2ccccc2C(=O)N2CCOCC2)cn1	-8%
O=C(NCC1CCCO1)c1ccc(NC(=O)C2CC=CCC2C(=O)O)cc1 (stereo unspecified)	-14%
Cc1cc(Cl)ccc1OCC(=O)NCCOc1nc(N2CCCCC2)nc(N2CCOCC2)n1	0%
COc1ccc(O[C@H]2C=C[C@@H](c3ccccc3)O[C@@H]2COC(=O)CC/C(C)=N/OC[C@@H](O)COCc2ccco2)cc1	-17%
S=C(Nc1cccc(Cl)c1)Nc1ccccc1Oc1ccccc1	-7%
CC(=O)Nc1nc(C=C(Cl)Cl)cs1	-16%
COc1cc(OC)c(OC)cc1/C=N/N(C)c1ccccc1	-19%
COc1ccc(-c2csc(N(CC3CCCO3)C(=O)c3ccco3)n2)cc1 (stereo unspecified)	-16%
O=C(NCCCc1ccccc1)c1ccccc1	-28%
COc1ccc(NC(=O)C2CCN(S(=O)(=O)c3cccc4cccnc34)CC2)cc1OC	-18%
CCOC(=O)C1=C(C)NC(C)=C(C(=O)OCC)C1c1sccc1C	-11%
COC(=O)Nc1ccc(S(=O)(=O)N2CCCC(C(=O)NC3CCS(=O)(=O)C3)C2)cc1 (stereo unspecified)	3%
Cc1cccc(NC(=O)CCNC(=O)c2ccco2)c1	-12%
O=C(c1ccc(F)cc1)N1CCN(c2cc(N3CCCCC3)c(F)cc2[N+](=O)[O-])CC1	-9%
CCCOc1cc(CN2CCCCC2)cc(C(C)=O)c1	0%
CCOC(=O)C1=C(C)OC(N)=C(C(=O)OCC)C1c1cccnc1 (stereo unspecified)	-6%
O=C(Cc1csc(Nc2nc(=S)[nH]c3ccccc23)n1)NCc1cccc(Cl)c1	-9%
CCc1ccc(NC(=S)NNC(=O)c2ccccc2OC(F)F)cc1	-7%
O=S(=O)(NCc1ccc(F)cc1)c1cccc(S(=O)(=O)N2CCOCC2)c1	6%
Cc1cccc2nc(CSCc3ccco3)cn12	-13%
Cc1ccc(N(CC(=O)NC(C)c2ccccc2)S(=O)(=O)c2cccs2)cc1 (stereo unspecified)	-3%
Cc1cc(N2CCC(C(=O)N3CCN(c4cccc(C)c4C)CC3)CC2)n2ncnc2n1	-23%
Cc1cc(NC(=O)Cn2c(=O)c3c(ncn3CC(C)C)n(Cc3ccccc3)c2=O)no1	-14%
Fc1ccc(NC(=S)NN=C2CCCCCC2)cc1	-17%
Cc1ccn2cc(CNS(=O)(=O)c3ccc4c(c3)OCCO4)nc2c1	11%
Cc1cc(NC(=O)C2C3C(=O)N(Cc4ccc(Cl)cc4)C(C(=O)NCc4ccccc4)C34C=CC2(C)O4)no1 (stereo unspecified)	-1%
Cc1ccc(OCC(=O)NCc2ccccn2)c(Br)c1	-20%
CN(C)c1nc(NCc2ccccc2)nc(N/N=C/c2ccc3c(c2)OCO3)n1	?
O=C(O)CC1(c2ccccc2)C(=O)c2ccccc2C1=O	-13%
CCN(CC)CCCNC(=O)C1CCC(=O)N(c2ccc(OC)cc2)C1c1ccc(F)cc1 (stereo unspecified)	-9%
Cc1ccccc1-c1nc(CS(=O)CC(=O)NCCN2CCN(Cc3ccccc3)CC2)c(C)o1 (stereo unspecified)	-4%
CC(=O)c1c(C)[nH]c(C(=O)NC2CCCCC2)c1C	-13%
FC(F)(F)c1cc(CN2CC[C@@]3(CCCNC3)C2)cc(C(F)(F)F)c1	-3%
CCn1c(CSc2nc(C)cc(C)n2)nnc1SCC(=O)Nc1cccc2ccccc12	4%
COc1cccc(NC(=O)COC(=O)c2nc3nccc(C)n3n2)c1	-4%
Cc1ccc(C)c(S(=O)(=O)N2CCN(CC(=O)Nc3ccc([N+](=O)[O-])cc3)CC2)c1	-7%
Cc1ccccc1NC(=O)NCCN1C(=O)C2C3C=CC(C3)C2C1=O (stereo unspecified)	-8%
